# SARS PLpro yeast: blocks SARS-CoV papain-like protease in a yeast assay; S. cerevisiae expressing SARS-CoV PLpro, growth rescue; control for the full effect not named in the record; Potency, µM (titrated, usually from 32.9 µM), without a hit: at the top dose activity, positive = growth rescue; 330,000 tested, 0.19% active; active means well fitted rising curve with a large enough effect; inconclusive means small, poorly fitted or top-dose-only effect; inactive means no such curve, though single readings can be large or run the other way; note: 0% is about no effect; nearly all actives have a fitted effect of over 55% in size; growth read by luminescence after 48 h
# Cruzain inh noDet: cruzain (T. cruzi) inhibition without detergent; purified cruzain, Z-FR-AMC fluorescence, no detergent; P25779; AID 1476; 200,000 tested, 2.3% active; Potency, µM, without a hit: max response, negative = inhibition, usual class: inhibitors;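 note: plate controls were enzyme without inhibitor for no effect and buffer without enzyme for full effect; nearly all actives have a fitted effect of over 40% in size; top concentration of the series not given in the record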
# Target sequence (P25779 123-467 limits assumed): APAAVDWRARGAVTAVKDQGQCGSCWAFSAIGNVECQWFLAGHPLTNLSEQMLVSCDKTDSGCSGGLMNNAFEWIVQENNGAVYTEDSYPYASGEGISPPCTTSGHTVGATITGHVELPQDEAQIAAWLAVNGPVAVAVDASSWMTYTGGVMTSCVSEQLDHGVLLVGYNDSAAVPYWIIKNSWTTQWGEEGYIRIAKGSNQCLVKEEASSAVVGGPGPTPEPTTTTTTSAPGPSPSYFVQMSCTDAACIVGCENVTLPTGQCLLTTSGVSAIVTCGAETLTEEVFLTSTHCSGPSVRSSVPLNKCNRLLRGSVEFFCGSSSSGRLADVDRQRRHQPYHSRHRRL
#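 Detergent-free condition (0.00005% Triton X-100) in acetate buffer pH 5.5 with DTT. 1.5 nM enzyme and compound were pre-mixed 15 min, then 2 uM Z-FR-AMC substrate added; reaction progress from fluorescence change between first and third reads (60 s).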
# Cruzain Triton: blocks cruzain activity in presence of Triton detergent; P25779; purified cruzain, Z-FR-AMC fluorescence, 0.01% Triton; Potency, µM, without a hit: max response, negative = inhibition, most hits filed as inhibitors; 200,000 tested, 0.43% active; AID 1478;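 note: plate controls were neutral wells for no effect and buffer without enzyme for full effect; nearly all actives have a fitted effect of over 40% in size; top concentration of the series not given in the record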
#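 Detergent-containing arm of a paired screen for aggregation-based inhibition: 0.01% Triton X-100 present. Cruzain at 1.5 nM cleaved 2 uM Z-FR-AMC at pH 5.5 with 5 mM DTT; AMC fluorescence gain over 60 s measured activity.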
# 2A StopGo: FMDV 2A StopGo reporter, luciferase signal. 410,000 tested, 1.2% active. human cells with a luciferase reporter of 2A StopGo recoding; control for the full effect not named in the record. AID 1159524. Potency, µM (series often up to 57.9 µM), for the others: top-dose signal change, negative = less light; active = well fitted falling curve with a large enough effect; inconclusive = small, poorly fitted or top-dose-only effect; inactive = no such curve, though single readings can be large or run the other way; tested in HEK293T cells; note: % is set by controls: 0 for no effect and ±100 for the full control effect; nearly all actives have a fitted effect of over 45% in size; luciferase light after 4 h
# MARV entry inh: Marburg virus entry inhibition. Marburg virus pseudotyped entry inhibition, cell reporter; control for the full effect not named in the record; about a third of the inactives were read at about 46 µM. 300,000 tested, 1.8% active. Potency, µM (series often up to 37.8 µM), for the others: at the top dose activity change, negative = inhibition, hits mostly inhibitors. AID 540276; active = well fitted inhibition curve with a large enough effect; inconclusive = small, poorly fitted or top-dose-only effect, or effect the other way; inactive = flat fitted curve, though single readings scatter; tested in HEK293 cells; about a fifth of its hits are not listed in these tables; note: % is set by controls: 0 for no effect and ±100 for the full control effect; luciferase read-out
# RE007 growth inh: less growth of the S. pombe RE007 Vpr strain. S. pombe RE007 Vpr strain, BacTiter-Glo ATP luminescence, 24 h; control for the full effect not named in the record. Potency, µM (top dose mostly 92.2 µM), inactives show at the top dose activity change, negative = less growth. 360,000 tested, 0.21% active; active = well fitted falling curve with a large enough effect; inconclusive = small, poorly fitted or top-dose-only effect; inactive = no such curve, though single readings can be large or run the other way;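 note: % is set by controls: 0 for no effect and ±100 for the full control effect; nearly all actives have a fitted effect of over 50% in size; the assay follows cell death caused by Vpr and the record does not say whether a fall means rescue or toxicity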
#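 Fission yeast strain RE007, carrying one chromosomally integrated HIV-1 vpr copy, was seeded at OD 0.01 in PMG+AL medium with 23 nL pinned compound. After 24 h at 30 °C and 99% humidity, viability was read by BacTiter-Glo luminescence.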
# NS1 function inh: inhibitors of influenza NS1 protein function; S. cerevisiae slowed by influenza A NS1, growth recovery by OD600; Potency, µM (highest dose often 46.1 µM), for inactives: at the top dose activity, positive = more growth; AID 2326; 270,000 tested, 0.4% active; active means well fitted rising curve with a large enough effect; inconclusive means small, poorly fitted or top-dose-only effect; inactive means no such curve, though single readings can be large or run the other way; note: nearly all actives have a fitted effect of over 50% in size
#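 A cell-based growth assay was used: compounds that relieve NS1-induced slow growth of budding yeast raise OD600. Assay medium was yeast nitrogen base with ammonium sulphate and -URA supplement, pH 6.0, with 2% galactose.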
# LASV entry inh: inhibitors of Lassa virus binding or cell entry; AID 540256; Lassa virus pseudotype entry inhibition, cell reporter; control for the full effect not named in the record; Potency, µM (doses to about 37.9 µM), for the others: at the top dose activity change, negative = inhibition, usual class: inhibitors; 300,000 tested, 1.2% active; active means well fitted inhibition curve with a large enough effect; inconclusive means small, poorly fitted or top-dose-only effect, or effect the other way; inactive means flat fitted curve, though single readings scatter; tested in HEK293 cells; note: % is set by controls: 0 for no effect and ±100 for the full control effect; nearly all actives have a fitted effect of over 50% in size; luciferase read-out
# An asterisk follows results filed as active; ? = inconclusive; . = no result given; & = joins results of further samples; [ ] = remark or other dose. Unless noted, calls come from the whole dose curve; as a rule, active = well fitted curve in the direction sought with a large enough effect; inconclusive = small, poorly fitted or top-dose-only effect, or another doubt; inactive = no such curve, though single readings can be large; an effect the other way counts as inactive or inconclusive. Potency is the fitted concentration of half-maximal effect.
SMILES,SARS PLpro yeast,Cruzain inh noDet,Cruzain Triton,2A StopGo,MARV entry inh,RE007 growth inh,NS1 function inh,LASV entry inh
CN1CCC(=C2c3ccccc3CCc3sccc32)CC1,-9.8%&-2.2%,-0.2%&-15.8%,2.2%&2.3%,?,.,5.5%[18.4 µM],.,.
CCCCC1CCC(CCCC(C)CCC(=O)O)CC1 (configuration not stated),.,12.2%,-8.6%,-6.5%,.,.,.,19.6%[46.1 µM]
CCOc1ccc(S(=O)(=O)N2CCCCCC2)c2ccccc12,-29.4%,0.0%,-5.5%,31.7%,-7.3%,4.6%,-11.8%,0.1%
Cc1nc2c3ccccc3nc(NNC(=O)CCC(=O)N3CCN(c4cc(Cl)ccc4C)CC3)n2n1,.,?,0.0%,-10.8%,?,.,.,18.0%[46.1 µM]
COc1ccc(NC(=O)Cn2ccn(-c3ccc(C)c(C)c3)c(=O)c2=O)cc1Cl,.,?,-7.0%,7.8%,.,.,.,-3.8%[46.1 µM]
CC(C)Cn1cnc2c1c(=O)n(C)c(=O)n2C,-1.5%,.,.,-21.5%,.,7.3%,4.0%,.
COc1ccccc1OCC(O)COC(N)=O (configuration not stated),2.0%,10.9%&-0.6%,2.7%&5.0%,-19.9%&1.9%,?,-2.4%,0.9%,2.3%
O=C1N(c2ccccc2)c2ccccc2C1(Cc1ccncc1)Cc1ccncc1,3.0%,3.8%&9.9%,3.0%&3.3%,-7.1%&-21.3%,?,0.4%[18.4 µM],-15.2%,2.3%
CCCCCCCCO,-3.6%,-5.1%,2.6%,0.0%,.,6.4%,.,.
CCCn1ncc(CN2CCCC(C(=O)c3cccc(OC(C)C)c3)C2)c1C (configuration not stated),2.9%,.,.,-28.1%,.,-3.5%,3.7%,.
N=C(N=C(N)N)N1CCOCC1,-7.0%,17.0%,-3.0%,-12.7%,.,9.4%[18.4 µM],.,.
COc1ccc(C(=O)Nc2nc3ccccc3n2CCOc2ccc(Cl)cc2)cc1,.,-16.1%,-2.1%,13.4%,1.7%[46.1 µM],.,.,16.0%[46.1 µM]
Cc1coc2c1C(=O)C(=O)c1c-2ccc2c1CCCC2(C)C,-4.0%,4.1%&-12.2%,-25.7%&-14.2%,-20.5%,.,-8.6%,-20.9%,.
NS(=O)(=O)c1cc2c(cc1C(F)(F)F)NC(Cc1ccccc1)NS2(=O)=O (configuration not stated),-0.6%,-2.2%&-3.1%,-0.5%&-2.2%,-6.1%&-1.3%,12.1%&12.1%&12.1%&12.1%,1.9%[18.4 µM],10.7%,0.0%
O=C(O)COC(=O)Cc1ccccc1Nc1c(Cl)cccc1Cl,1.4%,-0.6%,-5.4%,-3.4%,.,6.7%,-29.5%,.
Cc1nc2c3ccccc3nc(NNC(=O)CCC(=O)N3CCN(c4ccccc4)CC3)n2n1,-2.6%,?,1.1%,-9.7%&-1.3%,17.0%&17.0%[46.1 µM],48.7%,-7.9%,9.0%[46.1 µM]
CNC(=O)c1ccc(CSc2nc3ccncc3n2Cc2ccc(C)cc2)cc1,.,-8.2%,-7.2%,-23.9%,-14.0%[46.1 µM],.,.,-1.6%[46.1 µM]
Cc1nnc(NS(=O)(=O)c2ccc(N)cc2)s1,0.1%,-3.4%&3.7%&-1.4%&1.7%,1.8%&-3.3%&4.7%&-3.6%,-1.3%&-12.7%,26.0%,-6.6%,-0.7%,-11.5%
CCOC(=O)C1(CCOc2ccccc2)CCN(Cc2ccc(O)c(Cl)c2)CC1,2.0%,.,.,?,.,-9.0%,4.8%,.
Nc1ccc(C(=O)Nc2ccccc2N)cc1,-15.3%,.,.,15.1%,.,1.8%,-6.6%,.
C/C=C/C=N\NC(=O)c1ccncc1,-2.2%,.,.,-20.1%,.,5.9%[18.4 µM],-8.9%,.
c1ccc2c(CC3=NCCN3)cccc2c1,2.2%,-1.6%&-3.4%&1.6%,-2.4%&0.6%&7.3%,-17.8%&-5.7%&0.2%,-3.7%&-3.7%&-3.7%&-3.7%&-3.7%&-3.7%&-3.7%&-3.7%&-3.7%,-15.6%[18.4 µM],-1.3%,2.9%
CC(=O)[C@H]1CC[C@H]2[C@@H]3C[C@H](C)C4=CC(=O)CC[C@]4(C)[C@H]3[C@@H](O)C[C@]12C,1.6%,?,0.3%,-16.5%,-15.5%,-6.9%[18.4 µM],-4.6%,-2.7%
Cc1nn(CC(=O)NCCc2ccccc2)c(=O)c2c1sc1ccccc12,.,-12.0%,-8.9%,9.0%,7.4%[46.1 µM],.,.,5.2%[46.1 µM]
Cc1oc(-c2cccc(Cl)c2)nc1Cn1c(SCc2ccccc2F)nc2ccncc21,.,2.1%,-7.0%,-6.9%,?,.,.,22.0%[46.1 µM]
Nc1cc(-c2ccncc2)c[nH]c1=O,-37.1%,-0.9%&-3.1%&21.4%,0.3%&-4.9%&-4.2%,0.0%&-5.0%,22.0%&22.0%&22.0%&22.0%&22.0%,-1.6%,-19.8%,5.4%
C[C@]12CC[C@H]3[C@@H](CCC4=CC(=O)CC[C@@]43C)[C@@H]1CC[C@@H]2C(=O)CO,-6.3%,10.1%,-8.9%,-24.7%,7.8%,2.4%,-12.2%,-23.2%

# One compound at a time, from the list above.
# Listed for CCOc1ccc(S(=O)(=O)N2CCCCCC2)c2ccccc12 : SARS PLpro yeast = -29.4%; Cruzain inh noDet = 0.0%; Cruzain Triton = -5.5%; 2A StopGo = 31.7%; MARV entry inh = -7.3%; RE007 growth inh = 4.6%; NS1 function inh = -11.8%; LASV entry inh = 0.1%
# Listed for N=C(N=C(N)N)N1CCOCC1 : SARS PLpro yeast = -7.0%; Cruzain inh noDet = 17.0%; Cruzain Triton = -3.0%; 2A StopGo = -12.7%; MARV entry inh = .; RE007 growth inh = 9.4%[18.4 µM]; NS1 function inh = .; LASV entry inh = .
# Listed for Nc1cc(-c2ccncc2)c[nH]c1=O : SARS PLpro yeast = -37.1%; Cruzain inh noDet = -0.9%&-3.1%&21.4%; Cruzain Triton = 0.3%&-4.9%&-4.2%; 2A StopGo = 0.0%&-5.0%; MARV entry inh = 22.0%&22.0%&22.0%&22.0%&22.0%; RE007 growth inh = -1.6%; NS1 function inh = -19.8%; LASV entry inh = 5.4%

# An excerpt of these results, with two lines to a compound:
# The line under a structure holds: SARS PLpro yeast | Cruzain inh noDet | Cruzain Triton | 2A StopGo | MARV entry inh | RE007 growth inh | NS1 function inh | LASV entry inh
CCOC(=O)C1(CCOc2ccccc2)CCN(Cc2ccc(O)c(Cl)c2)CC1
 : 2.0% | . | . | ? | . | -9.0% | 4.8% | .
Nc1ccc(C(=O)Nc2ccccc2N)cc1
 : -15.3% | . | . | 15.1% | . | 1.8% | -6.6% | .

# Assay outcomes deposited in PubChem by National Center for Advancing Translational Sciences (NCATS).

# Not all compounds are listed (hit frequency here may not be typical).
